Screening results as filed in PubChem.
HIV TAR-Tat = HIV-1 TAR-Tat binding disruption; HIV-1 TAR RNA, Tat peptide displacement FRET; stronger effect = higher value; z-score (no concentration beside the values); 0.6% of 100,000 active; AID 1259389;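 also: score is relative to mean and SD of negative controls; some compounds called inactive have numbers as strong as hits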
CDC25B CDK2 inh = human CDC25B-CDK2/CyclinA binding inhibition. z-score (test concentration not listed). HTRF CDC25B-CDK2/CyclinA binding, anti-His/anti-Flag; stronger effect = higher value. 0.72% of 94,000 active. P30305+P24941. AID 1259370;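 also: score is relative to mean and SD of negative controls; strong numbers were not always called active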
Starred values were filed as active, the others as inactive; x = not tested or not shown.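 The calls were made as follows: active = z-score from 3 up in half or more of its runs; inactive = the rest.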

Order of results: HIV TAR-Tat, CDC25B CDK2 inh
CC1N=C2c3ccccc3N=C(SC(C)C(=O)Nc3ccc4c(c3)OCCO4)N2C1=O (stereo unspecified)
 : -0.17, x
CN(C)S(=O)(=O)c1ccc2c(c1)N(CC(=O)N1CCN(c3cccc(Cl)c3)CC1)CCS2
 : 0.31, x
O=C(CSCCCN1CCN(c2cccc(Cl)c2)CC1)N/N=C\c1cccs1
 : x, -2
Cc1cc(Nc2ccc(C)c(F)c2)n2nc(-c3ccco3)nc2n1
 : -0.62, x
CCCCN(CC)C(=O)c1oc2ccccc2c1N
 : -0.11, -3.6
O=C1c2cccc3cccc(c23)C(=O)N1Cc1cccnc1
 : x, -0.05
O=C(NC(=O)c1ccc([N+](=O)[O-])o1)Nc1ccc(F)cc1F
 : x, -2.5
O=C(c1cc(-c2ccc(Cl)s2)nc2ccccc12)N1CCN(C/C=C/c2ccccc2)CC1
 : x, -3.3
Cc1nc2ccccc2c2oc(C(=O)NC(C)CCc3ccco3)cc12 (stereo unspecified)
 : x, 0.05
COc1ccc(-c2csc3ncnc(NC4CCCCC4)c23)cc1
 : 0.89, x
Cc1c(C)n(-c2ccccc2)c2ncn3nc(-c4ccccc4)nc3c12
 : 1.3, -2.7
COc1cccc2c1c(NC(=O)C1CCN(C(=O)OCc3ccccc3)CC1)nn2C
 : x, -1.6
CN(C)CCN(C(=O)c1ccc(F)cc1)c1nc2ccc(Cl)cc2s1
 : 1.5, x
O=C(Cc1ccccc1)Nc1ccc(Cl)cc1
 : x, -1.8
Cc1nc(N(C)C)cc(N2CCN(C(=O)c3ccc4c(c3)OCO4)CC2)n1
 : -0.54, 0.84
Cc1ccc(C)c(NS(=O)(=O)c2c(C)nc3sccn3c2=O)c1
 : 0.3, x
CNc1nc(OC)nc(-n2cnc(SCc3ccccc3)n2)n1
 : 1.1, -0.75
CCCS(=O)(=O)NCCc1cc2ccc(C)cc2[nH]c1=O
 : x, -1.6
CC1Cc2nc(SCC(=O)N3CCCc4ccccc43)n(-c3ccccc3)c(=O)c2S1 (stereo unspecified)
 : 0.83, 0.28
Cc1noc2ncn(C(C)C(=O)N3CCCc4ccccc43)c(=O)c12 (stereo unspecified)
 : 1, x
CN(C)CCC=C1c2ccccc2CCc2ccccc21
 : -0.11, -0.7
CC(C)CCNC(=O)CC(C)(C)CC1=NS(=O)(=O)c2ccccc2N1
 : 0.87, x
Brc1ccc(C2=CSC(c3ccccc3)=NN2)cc1
 : x, 0.01
O=C(CCc1nc(-c2ccncc2)no1)NC1CCCCC1
 : 0.01, -1.9
CC(C)CCNc1nc(N2CCCC2)c2cnn(C)c2n1
 : 0.63, x
CC(C)CC(NS(=O)(=O)c1ccc2c(c1)oc(=O)n2C)C(=O)N1CCn2c1nc1ccccc12 (stereo unspecified)
 : x, -0.57
CCOC(=O)N1CCN(Cc2nc3c(c(=O)n(C)c(=O)n3C)n2Cc2cc(C)ccc2C)CC1
 : 1.2, -1.9
O=C(NCC1CCCO1)Nc1cccc(-c2nnc(-c3ccccc3)o2)c1 (stereo unspecified)
 : -0.91, x
Cc1sc2ncnc(NC3CCCCC3)c2c1C
 : x, -1.6
Nc1nc(Cl)cc(Oc2ccccc2F)n1
 : x, -1.3

The last 4 entries of the section before lead into the next.
Order of results: HIV TAR-Tat, CDC25B CDK2 inh
CCOC(=O)N1CCN(Cc2nc3c(c(=O)n(C)c(=O)n3C)n2Cc2cc(C)ccc2C)CC1
 : 1.2, -1.9
O=C(NCC1CCCO1)Nc1cccc(-c2nnc(-c3ccccc3)o2)c1 (stereo unspecified)
 : -0.91, x
Cc1sc2ncnc(NC3CCCCC3)c2c1C
 : x, -1.6
Nc1nc(Cl)cc(Oc2ccccc2F)n1
 : x, -1.3
Cc1ccsc1CCNS(=O)(=O)c1ccc2c(c1)C(C)(C)C(=O)N2C
 : -0.23, x
NC(=O)CSc1nnc(-c2cccs2)n1-c1ccccc1
 : 1.2, -0.92
O=C(c1ccco1)n1nc(-c2cccnc2)nc1NCc1ccco1
 : -0.73, -1.3
Cc1csc(-n2[nH]c(C)c(CCC(=O)Nc3ccc(F)cc3)c2=O)n1
 : 1.1, 1.2
Fc1ccc(CN2CCC(CNc3nn4nnnc4c4ccccc34)CC2)cc1
 : -1.3, -3.6
COc1ccc(Cl)cc1NC(=O)Nc1nnc(N2CCCCC2)s1
 : -0.2, -2
CCOC(=O)c1n[nH]c(=S)[nH]c1=O
 : x, 0.31
CC(C)(C)C1CCc2c(sc(NC(=O)c3ccco3)c2C(=O)N2CCCC2)C1 (stereo unspecified)
 : 0.85, -1.1
O=C(Nc1ccc(F)cc1F)N1CCc2nc(N3CCCCC3)ncc2C1
 : 1.3, x
CSc1cccc(NC(=O)c2nn(C)c3c2CSc2ccccc2-3)c1
 : 2.1, -1.8
COc1cccc(C2CC(=O)Nc3nc(N)[nH]c(=O)c32)c1 (stereo unspecified)
 : 0.1, 1.2
Cc1cc(C(=O)NNS(=O)(=O)c2cccc3cccnc23)nn1C(C)(C)C
 : x, -0.11
Cc1cc(-c2ccccc2)n2nc(-c3ccccc3)cc2n1
 : 0.89, -0.11
Cc1c(C(=O)NC(C)C)nnn1-c1ccc2noc(-c3ccc(Br)cc3)c2c1
 : -5.8, 0.61
O=C(NC1CCCCC1)Sc1ccccc1
 : x, -3.4
Cc1cccc(-c2nc3nc(C)cc(N4CCC(C)CC4)n3n2)c1
 : 2.2, -0.44
Nc1nc(-c2ccc(Cl)cc2)nn1C(=O)c1cccc2ccccc12
 : 0.06, -1.5
Cc1ccc(OCc2ccc(-c3nc(C#N)c(NCCCn4ccnc4)o3)o2)cc1
 : 1.5, -1.7
CSc1ncc(Cl)c(C(=O)Oc2ccc(Cl)cc2)n1
 : 1.6, 1
COc1ccc(-c2cc(C)no2)cc1S(=O)(=O)NCCC(C)C
 : -6.2, x
O=C(Nc1nnc(-c2ccco2)s1)c1ccccc1Br
 : 2.6, -0.25
COc1ccccc1N1C(=O)c2c(C)nc3ccccc3c2C1=O
 : 0, 2.6
CCc1ccc(-n2sc3c(c2=S)-c2cc(C)c(C)cc2NC3(C)C)cc1
 : x, -1.6
O=c1[nH]c2cc3c(cc2c(=O)n1CCCc1nc(-c2ccccc2Br)no1)OCO3
 : 0.04, x
Cc1ccc(-c2nc(N)n(C(=O)C3CC3)n2)cc1C
 : -0.76, -0.09
O=C(NCc1csc(-c2cccs2)n1)[C@H]1CSCN1S(=O)(=O)c1cccc(Cl)c1
 : 1.7, x
Cc1ccc(CN2C(=O)c3cc4ccccc4n3CC2(C)C(=O)NCCC(C)C)o1 (stereo unspecified)
 : 2.9, x
CCCCn1c(C)nc2c(=O)oc3ccccc3c21
 : 0.25, 0.68
CSc1nnc(-c2ccccc2)n1C
 : x, -0.56
Cc1ccccc1C1N=C(N)Nc2nc3ccccc3n21 (stereo unspecified)
 : 0.03, -0.3
CC(C)n1c(COc2ccc(Cl)cc2)nc2ccccc21
 : 1.4, 0.11
CCCOc1ccc(-c2nc(OC)c3ccccc3n2)cc1
 : x, -0.96
O=C(Nc1cccnc1)c1ccco1
 : 1.3, -1.3
CCn1c2ccccc2c2nnc(NCCCN3CCN(c4ccc(OC)cc4)CC3)nc21
 : 2.4, 0.47
CCc1ccc(-n2c(=O)c3ccccc3n(Cc3cc(=O)n4ccccc4n3)c2=O)cc1
 : x, -1.6
Cc1nnc(SCc2ccccc2)c2cc3sccc3n12
 : 5.6, x
O=C(COc1ccc(Cl)cc1)Nc1ccc(OCc2cc(=O)n3ccsc3n2)cc1
 : -0.33, -0.83
CCOc1ccccc1C1C(C#N)=C2N=C(N)c3ccccc3N2C2=C1C(=O)CCC2 (stereo unspecified)
 : -5.9, -0.57
Cc1ccc(C)c(Cn2cnc3onc(-c4ccc(Cl)cc4)c3c2=O)c1
 : 1.4, x
O=C(NC1CCCC1)c1ccc2nc(N3CCOCC3)sc2c1
 : 0.33, 0.17
CS(=O)(=O)Nc1nc2ccc(NC(=O)c3n[nH]c4c3CCCC4)cc2s1
 : -0.82, x
COc1cc(C2C(C#N)=C(N)Oc3n[nH]c(C)c32)ccc1OC(C)=O (stereo unspecified)
 : 0.73, -1.9
CCOc1ccc(NC(=O)N(CCC(C)C)C(C)c2ccco2)cc1 (stereo unspecified)
 : 1.1, x
CC12CCC(C(=O)N3CCCc4ccccc43)(OC1=O)C2(C)C (stereo unspecified)
 : x, -0.95
c1ccc(OCc2nnc(-c3ccccc3)o2)cc1
 : 0.98, 1
Cc1c(CO)c2ccccc2n1Cc1ccc(Br)cc1
 : -0.34, -0.9
COc1ccc(CNc2nc3nc(C)cc(C)n3n2)cc1OC
 : 0.43, -1.2
Oc1cccc(-c2nc3ncccn3c2Nc2ccc(Cl)cc2)c1
 : 1.8, -1.6
Cc1cccc(N2CCN([C@H]3CS(=O)(=O)C[C@@H]3S(=O)(=O)c3ccccc3)CC2)c1
 : -0.55, -2.1
N#CC1=C(N)Oc2n[nH]c(-c3ccc4c(c3)OCO4)c2C1c1c(F)cccc1Cl (stereo unspecified)
 : x, 0
Cc1ccccc1CCNc1nnc(C)c2nnn(Cc3ccc(F)cc3)c12
 : 0.79, -0.25
COc1cc2c(NC3CCN(C)CC3)nc(N3CCCN(C)CC3)nc2cc1OCCCN(C)C
 : 12*, x
CCn1c(=O)[nH]c2cc(Cl)c(Cl)cc21
 : x, -2.2
Cn1c(-c2nnc(SCC(=O)NCc3nc4ccccc4[nH]3)o2)cc2ccccc21
 : 1.4, -1.2
Cn1cc(NC(=O)Nc2cccc(Cl)c2)c2ccccc2c1=O
 : -0.05, x
COc1cccc(NC(=O)Nc2nnc(COc3ccc(F)cc3)s2)c1
 : 1.6, -1
Cc1cc(C)cc(C(C(=O)NC2CCCCC2)N(C(=O)c2cnccn2)c2cccs2)c1 (stereo unspecified)
 : 0.81, -0.26
O=C1c2ccccc2C(=O)N1CCN1CCN(Cc2ccccc2)CC1
 : x, -2.6
C=CCOC(=O)C1=C(C)NC2=C(C(=O)CC(C)(C)C2)C1c1cc(OC)c(OC)cc1Br (stereo unspecified)
 : 2.8, 0.55
Cc1nn(C)c2c1S(=O)(=O)N=C(N1CCOCC1)S2
 : x, 1.2

(continued)
Order of results: HIV TAR-Tat, CDC25B CDK2 inh
CC(C)NC(=O)CSc1nc(-c2ccccc2)nc2cc(=O)[nH]n12
 : -0.01, x
O=C(Nc1ccc2c(c1)OCCO2)C1CCN(S(=O)(=O)c2ccc(F)cc2)CC1
 : x, 1.4
O=C(Cn1c(=O)c2cccn2c2ccccc21)Nc1cc(F)ccc1F
 : 3, x
Cn1nc(C(=O)N2CCCc3ccccc32)c2c1-c1ccccc1SC2
 : 0.01, -2.4
COC(=O)c1sccc1NC(=O)c1cc2c(s1)-c1ccccc1S(=O)(=O)C2
 : 0.17, 0.17
O=C(NC1CCCC1)c1ccc(CN2CC(=O)N3CCCC3C2=O)cc1 (stereo unspecified)
 : 1.7, x
CCC(C)N[C@H]1CS(=O)(=O)C[C@@H]1S(=O)(=O)c1ccccc1 (stereo partly specified)
 : -2.2, -0.32
O=C(CSc1nnc(-c2ccncc2)o1)N1CCN(c2ccc(F)cc2)CC1
 : 2.5, -2
Cc1cc2ccccc2c(=O)n1CC(=O)O
 : -1.1, -1.8
Cc1ccccc1CN1C(=O)C(O)(CC(=O)c2ccco2)c2cc(Cl)ccc21 (stereo unspecified)
 : 1.6, 0.64
Cc1ccc(COc2ccc3ccccc3c2CNc2nnn(C)n2)cc1
 : 0.03, x
CSc1sc(NC(=O)N2CCOCC2)c(-c2ccc(Cl)cc2)c1C#N
 : x, 0.39
Cc1csc2ncc(C(=O)NCCCN3CCCCC3)c(=O)n12
 : 2.2, x
CC(C)CC(=O)Nc1sc2c(c1C(N)=O)CCCC2
 : 0.75, -2.3
CCOC(=O)c1c(S(=O)(=O)NCC(=O)NC2CCCC2)c(C)n(C)c1C
 : 2.3, x
COc1ccc(NC(=O)C(C)Oc2nsnc2N2CCOCC2)cc1OC (stereo unspecified)
 : -0.53, x
Cc1ccc(NC(=O)CSCc2cc(=O)n3oc(C)cc3n2)cc1
 : 1, x
Cc1ccc(N=C2NC(=O)/C(=C/c3ccc(O)c(Br)c3)S2)cc1Cl
 : x, 8.8*
O=C(Nc1ccc(Cl)cc1)c1csc(COc2ccc3nonc3c2)n1
 : x, -0.39
Nc1c(-c2nc(-c3ccccc3)no2)nnn1-c1ccccc1
 : 3.4, 2.2
Cc1ccccc1Cn1nc2c3ccccc3n(Cc3ccccc3)cc-2c1=O
 : -0.88, x
CC(C)(C)NC(=O)Cn1nc(-c2ccco2)ccc1=O
 : 1.4, x
Cc1ccc2c(c1)-c1c(cnn1CC(=O)N1CCCC1)CO2
 : 0.65, -0.07
CCNc1sc2c(c1C#N)CC(C)(C)OC2
 : -2.3, -0.64
COc1cccc(-c2noc(COc3cccc(C)c3C)n2)c1
 : 1.8, -3.2
O=C1CCc2cc(S(=O)(=O)N3CCN(c4ccccc4Cl)CC3)ccc2N1
 : x, 2.1
CCOC(=O)c1nnn(-c2nonc2N)c1CSc1nc2ccccc2s1
 : x, -1.8
COc1cc(Cl)c(C)cc1Nc1c(C)c(C)nc2ncnn12
 : 0.67, x
CCc1ccc(N2C(=O)N(Cc3ccc(Cl)cc3)C3CS(=O)(=O)CC32)cc1 (stereo unspecified)
 : 1.2, 0.63
Cc1cc(C(=O)N2N=C(C3CC3)CC2(O)C(F)(F)F)c2ccccc2n1 (stereo unspecified)
 : x, -0.69
CCn1cc(S(=O)(=O)c2ccc(OC)cc2)c(=O)c2cc(Cl)ccc21
 : -1.1, -1.1

Single records, as listed above:
COc1cc(C2C(C#N)=C(N)Oc3n[nH]c(C)c32)ccc1OC(C)=O (stereo unspecified) is entered as HIV TAR-Tat = 0.73; CDC25B CDK2 inh = -1.9
Cc1ccc(N=C2NC(=O)/C(=C/c3ccc(O)c(Br)c3)S2)cc1Cl is entered as HIV TAR-Tat = x; CDC25B CDK2 inh = 8.8*

Compounds as they come. About 0.89% of those tested had a hit in this group.
